Assay outcomes (PubChem BioAssay)
Mtb hypoxia inh: PubChem AID 1159583 | M. tuberculosis hypoxia-regulated fluorescent reporter, fluorescence | fluorescence inhibition, % (concentration not given with the values) | 300,000 compounds, 0.1% hits;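 active = 35 to 45% if threefold the growth effect, above 45% if 1.5-fold the growth effect; inactive = the rest, general growth blockers included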;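 also: wells of about 50 µL received 100 nL stock; 0% = vehicle wells and 100% = reference inhibitor wells; whole bacteria with a GFP reporter of the hypoxia response; strong numbers were not always called active; many hits fall short of the cut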
ugtP null kill: growth inhibition of ugtP-null S. aureus, primary screen, RN4220 ugtP deletion, OD600. 16 h; some inactives read as strong as hits. growth inhibition, % (no concentration beside the values). 330,000 compounds, 0.54% hits;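 active = z-score under -3 and OD600 up to 0.15 on both plates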;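 also: plate controls were untreated wells for no effect and antibiotic for full effect; wells of about 80 µL received 100 nL stock; the first replicate is given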
BJeLR lethal: MLPCN primary cell-based screen for lethality selective to Ras in HRASV12 cells | BJeLR (HRASV12) viability, CellTiter-Glo ATP luminescence, 48 h; reference of the scale not given here | inhibition, % (concentration not given with the values) | 300,000 compounds, 0.17% hits | AID 1554, 2009;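 active = replicate mean above 50%; inconclusive = above 50% but judged a plate artefact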;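 also: 50 nL library stock added to about 25 µL; numbers are from one replicate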
Bead autofluor: counter-screen for toxin protease inhibitors: compound fluorescence | 360,000 compounds, 3.1% hits | compound autofluorescence counterscreen, microsphere flow cytometry; stronger effect = higher value | fluorescence intensity (no concentration beside the values);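 active = at least 3 SD above the mean of all compounds, about 16000 in these data; inconclusive = too few beads counted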;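 also: 100 nL of 1 mM stock went into each well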
RN4220 kill: growth inhibition of S. aureus RN4220, primary screen, OD600 | AID 1259311, 2017 | inhibition, % (test concentration not listed) | 330,000 compounds, 0.33% hits | 16 h;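 active = z-score of -3 or lower and OD600 up to 0.18 on both plates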;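 also: plate controls were untreated cells for no effect and reference antibiotic for full effect; stock transfer was 100 nL into about 80 µL; one replicate is shown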
PrP 5UTR inh: inhibition of PrP 5' UTR reporter expression | cell-based PrP 5' UTR mRNA reporter, plate reader | inhibition, % (test concentration not listed) | 340,000 compounds, 0.35% hits | AID 488862, 2010;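 active = every replicate at 50% or more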;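 also: 0 = median of the neutral control wells; tested in H4 reporter cells; numbers are from one replicate; inactives centre near -14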
Mtb hypoxia inh growth: second read-out of Mtb hypoxia inh, no call of its own (marks repeat the call); growth inhibition, %; measured here: M. tuberculosis growth (absorbance);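 0% = vehicle and 100% = reference antibiotic; read after six days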
The depositor's hits bear a star; ? = inconclusive; . = no result given.

SMILES	Mtb hypoxia inh	Mtb hypoxia inh growth	ugtP null kill	BJeLR lethal	Bead autofluor	RN4220 kill	PrP 5UTR inh
COCCN(C(=O)COC(=O)/C=C/c1ccc(C)o1)c1c(N)n(Cc2ccccc2)c(=O)[nH]c1=O	-1	9	0	11	5641	1.0	7
CC(CC(=O)NC1CCCCCC1)=NNC(=O)c1cnccn1	6	5	10	.	.	1.5	.
COC(=O)c1nn(-c2ccc(OC)cc2)c(=O)cc1Sc1ccc(C)cc1	17	0	-1	-4	4590	1.4	-12
Cc1[nH]c(=S)[nH]c(=O)c1Cc1ccccc1	11	3	5	-5	8041	3.7	-9
CC1(C)Cc2cccc(OCC(=O)NCc3ccccc3)c2O1	6	-7	4	4	.	2.0	-13
CC(C)(C)OC(=O)NCc1ccc(CNC(=O)c2nc[nH]c2C(=O)N2CCc3ccccc3C2)cc1	1	7	1	.	3459	6.5	-50
COc1ccc(OC)c(NC(=O)CSc2nnc(Cc3cccn3C)n2CCc2ccccc2)c1	5	0	-3	-3	8178	1.0	-11
C/C(C=NNC(=O)CSc1nnc(SCc2ccc(C)cc2)s1)=C/c1ccco1	10	8	-4	.	.	5.3	.
CC12C=CC3(CN(Cc4ccccc4)C(=O)C3C1C(=O)NC1CC1)O2 (stereo not drawn)	4	6	0	0	22134*	0.6	-9
CN(CC(=O)Nc1ccc(F)cc1)C(=O)COC(=O)c1cc(S(=O)(=O)N(C)C)ccc1N1CCCC1	-3	6	-3	-7	6248	-8.8	7
CCOc1ncccc1C(=O)N1CCN(Cc2ccc3c(c2)OCO3)CC1	.	.	-5	10	2219	-2.4	-17
CCOc1cc(N)c(Cl)cc1C(=O)NCC1CN(Cc2ccc(F)cc2)CCO1 (stereo not drawn)	-3	4	25	11	4391	4.7	-6
O=C(OC(C(=O)NC1CCCCC1)c1ccccc1)c1ccco1 (stereo not drawn)	1	9	2	-21	4060	5.2	0
Cc1c(C(=O)Nc2ccc3c(c2)OCO3)sc2ncn(CC(=O)N3CC(C)CC(C)C3)c(=O)c12 (stereo not drawn)	8	8	-2	-13	9611	8.1	-27
CCC(C)NC(=O)CSc1ccc(S(=O)(=O)N(C)C2CCCCC2)cn1 (stereo not drawn)	-1	5	7	.	5611	8.5	-16
COc1ccc(C(=O)Nc2cccc(-c3ccc(N4CCOCC4)nn3)c2)cc1OC	12	4	-6	-4	5095	-1.1	-64
CC(=O)N1N=C(c2cccc([N+](=O)[O-])c2)OC1(C)CC(=O)Nc1ccccc1 (stereo not drawn)	13	7	-1	-23	2653	3.3	-13
COc1cc(CO)c(Br)cc1OCC(=O)Nc1ccccc1C	-3	0	10	5	1944	6.4	-17
N#CCCN(C(=O)COC(=O)c1ccc(S(=O)(=O)Nc2ccccc2)cc1)c1ccccc1	2	-5	-9	-11	2281	1.8	-12
O=C1Nc2c(Br)cc(Br)cc2C1(O)N1CCOCC1 (stereo not drawn)	-2	0	-14	4	4310	-1.5	3
Cc1ccc(S(=O)(=O)N2CCN(C(=O)COC(=O)CNC(=O)c3ccc(C(C)(C)C)cc3)CC2)c(C)c1	6	-1	0	.	3019	0.8	-15
CC1Cc2nc(SCC(=O)NCC3CCCO3)n(Cc3ccccc3)c(=O)c2S1 (stereo not drawn)	9	8	1	8	11719	4.7	-18
Cc1ccc(-c2c[n+](CC(=O)Nc3ccc(C)cc3C)c3n2CCC3)cc1	4	5	11	2	5624	-1.0	-31
CCOc1ccccc1NC1c2ccccc2C(=O)N1c1ccc(C)cn1 (stereo not drawn)	7	9	-3	-15	6070	-10	-14

Structures listed so far containing sulfur, in the order listed:
SMILES	Mtb hypoxia inh	Mtb hypoxia inh growth	ugtP null kill	BJeLR lethal	Bead autofluor	RN4220 kill	PrP 5UTR inh
COC(=O)c1nn(-c2ccc(OC)cc2)c(=O)cc1Sc1ccc(C)cc1	17	0	-1	-4	4590	1.4	-12
Cc1[nH]c(=S)[nH]c(=O)c1Cc1ccccc1	11	3	5	-5	8041	3.7	-9
COc1ccc(OC)c(NC(=O)CSc2nnc(Cc3cccn3C)n2CCc2ccccc2)c1	5	0	-3	-3	8178	1.0	-11
C/C(C=NNC(=O)CSc1nnc(SCc2ccc(C)cc2)s1)=C/c1ccco1	10	8	-4	.	.	5.3	.
CN(CC(=O)Nc1ccc(F)cc1)C(=O)COC(=O)c1cc(S(=O)(=O)N(C)C)ccc1N1CCCC1	-3	6	-3	-7	6248	-8.8	7
Cc1c(C(=O)Nc2ccc3c(c2)OCO3)sc2ncn(CC(=O)N3CC(C)CC(C)C3)c(=O)c12 (stereo not drawn)	8	8	-2	-13	9611	8.1	-27
CCC(C)NC(=O)CSc1ccc(S(=O)(=O)N(C)C2CCCCC2)cn1 (stereo not drawn)	-1	5	7	.	5611	8.5	-16
N#CCCN(C(=O)COC(=O)c1ccc(S(=O)(=O)Nc2ccccc2)cc1)c1ccccc1	2	-5	-9	-11	2281	1.8	-12
Cc1ccc(S(=O)(=O)N2CCN(C(=O)COC(=O)CNC(=O)c3ccc(C(C)(C)C)cc3)CC2)c(C)c1	6	-1	0	.	3019	0.8	-15
CC1Cc2nc(SCC(=O)NCC3CCCO3)n(Cc3ccccc3)c(=O)c2S1 (stereo not drawn)	9	8	1	8	11719	4.7	-18

New compounds follow.
SMILES	Mtb hypoxia inh	Mtb hypoxia inh growth	ugtP null kill	BJeLR lethal	Bead autofluor	RN4220 kill	PrP 5UTR inh
Cn1ncc(Cl)c1C(=O)NCc1ccc2c(c1)OCO2	3	6	5	11	5903	1.2	-4
CCOc1ccccc1N1CCN(CC(=O)N(CC(C)C)c2c(N)n(CC(C)C)c(=O)[nH]c2=O)CC1	12	1	4	-6	4276	1.7	-7
CCN(CC)CCNC(=O)c1cn(CC)c2ccc(S(=O)(=O)N3CCOCC3)cc2c1=O	-1	-10	10	-14	4595	2.6	-2
O=C(Nc1ccc(F)cc1)C1CCN(S(=O)(=O)c2cccc3nonc23)CC1	12	11	6	-5	3683	6.4	-10
Cc1ccc(NC(=O)C(=O)NC(C)C2COc3ccccc3O2)cc1 (stereo not drawn)	14	12	-3	18	3117	3.8	-15
CCOc1ccc(Nc2nc(-c3cccnc3)cs2)cc1	1	-1	-5	-16	3627	-4.0	-66
COc1cc(C(=O)N2CCC(NC(=O)C(Cc3ccc(C)cc3)NC(C)=O)CC2)cc(OC)c1OC (stereo not drawn)	4	-1	7	-12	22816*	3.6	-17
O=C(C=Cc1cccc(Cl)c1)c1ccccc1	.	.	4	.	3638	29	-59
CN(Cc1ccccc1)C(=O)c1cccc(NC(=O)Cc2cccc(NC(=O)C3CCN(C(=O)C4CC4)CC3)c2)c1	3	9	8	.	3290	5.5	1
Cc1cc(NN=Cc2cccc([N+](=O)[O-])c2)nc(-n2nc(C)cc2C)n1	5	-1	-9	.	.	11	.
Cc1ccc(C2(C)NC(=O)N(CC(=O)Nc3cc(S(=O)(=O)N(C)C)ccc3C)C2=O)cc1 (stereo not drawn)	4	-3	-1	-16	2855	2.2	-14
Cc1nc(SCC(=O)N2CCC(C(N)=O)CC2)n[nH]1	7	2	-5	0	8812	1.3	-32
O=[N+]([O-])c1ccc(C2=Nc3cc(Cl)ccc3OC2)cc1	1	5	-8	-5	4571	7.0	-43
COc1ccc(S(=O)(=O)N2CCOCC2)cc1NC(=O)CNC(=O)c1cccs1	-3	4	7	.	8394	2.1	-46
O=C(CSc1nc2ccccc2s1)Nc1ncccn1	.	.	4	-6	4879	-0.3	-14
O=c1cc(O)c2sc3nc(C(F)(F)F)c4c(c3c2[nH]1)CCCCC4	-10	4	2	-5	3305	4.3	-12
COc1cc(NC(=O)CCCSc2nc(-c3ccco3)cc(C(F)(F)F)n2)cc(OC)c1OC	12	5	-16	10	2456	-11	-21
CCCCN(CC)CCNC(=O)c1cc2c(=O)[nH]c3ccccc3c2n1C	-1	-2	7	-9	5256	0.0	-18
CCOc1ccc(N2C(=O)CC(N3CCc4ccccc43)C2=O)cc1 (stereo not drawn)	3	14	5	-5	5889	4.0	-29
NC1(C(=O)O)CCCCC1c1ccccc1 (stereo not drawn)	5	7	3	.	3863	1.1	-17
CCN(c1ccccc1)S(=O)(=O)c1ccc2c(c1)C(C)(C)C(=O)N2C	-7	-6	0	-23	5536	9.2	-39
Cc1ccc2c(c1)N(CC(=O)N(Cc1ccc3c(c1)OCO3)CC1CCCO1)C(=O)C(C)O2 (stereo not drawn)	1	2	5	-12	23947*	1.7	-33
COc1cccc(CC(=O)OC(C)C(=O)Nc2ccc(N3CCOCC3)cc2)c1 (stereo not drawn)	-6	7	0	0	?	-0.4	-7
CCC(C)c1c(O)nc(SCC(=O)N2CCOCC2)[nH]c1=O (stereo not drawn)	-3	-9	2	1	17264*	-0.1	8
Cc1ccc(S(=O)(=O)N2CCC(C(=O)OC(C)C(=O)N(C)c3ccccc3)CC2)cc1C (stereo not drawn)	-3	2	-4	.	3655	-3.3	-31
Cc1ccccc1-c1nc2ccccc2o1	17	7	9	-1	11401	13	-73
CCOc1ccc(CSCCNC(=S)Nc2ccccc2)cc1	-1	4	-10	2	2202	2.5	-19
CN(Cc1ccccc1)C(=O)c1cc(=O)[nH]c2ccccc12	1	-2	10	5	.	0.8	-8
Cc1ccc(NC(=O)c2scc3c2CCCC3)cc1	9	5	11	14	2541	16	-182
Cc1noc(C)c1NC(=O)Nc1cccc2c1OC(CN(C)C(=O)Nc1ccc(C(F)(F)F)cc1)C(C)CN(C(C)CO)C2=O (stereo not drawn)	-4	-3	-11	.	.	0.0	.
CC1CC(C)CN(S(=O)(=O)c2ccc(F)c(C(=O)Nc3ccc(Cl)cc3F)c2)C1 (stereo not drawn)	9	-2	-6	-1	10170	3.5	-19
Cn1c(=O)c2nc(Cl)c(-c3ccccc3)nc2n(C)c1=O	8	6	7	8	2656	2.2	6
CN1CCC(NC(=O)c2cccs2)CC1	6	9	-9	3	5748	-15	-11
COc1ccc(S(=O)(=O)NCC2CCCO2)cc1C(=O)O (stereo not drawn)	-17	-11	4	-7	3051	4.7	.
COc1ccc(CNC(=O)CSc2nc3nc(C)cc(C)n3n2)cc1	.	.	1	-3	4657	1.6	-20
CCCC(=O)c1cc2cc(Cl)ccc2oc1=O	7	7	3	-9	4621	6.1	-8
Cc1ccccc1C(=O)N[C@H](C(=O)Nc1ccc(Cl)c(Cl)c1)C(C)C	-5	-6	-22	-22	2302	-4.7	-24
CCn1c(=O)n(CC)c2cc(NC(=O)C(C)c3ccccc3)c(Br)cc21 (stereo not drawn)	3	4	-2	-9	3634	3.5	12
C/C(=C/C#N)Nc1ccc(C)cc1	9	-4	-1	-2	4125	2.3	-31
Cc1ccc(C(=O)NCCc2n[nH]c(=S)n2C)cc1	10	-13	-3	-8	2073	-1.1	-2
O=C(N/N=C/c1c(F)c(F)c(F)c(F)c1F)c1ccc(Cn2cc(Br)cn2)o1	.	.	.	-4	9619	.	-24
CCOC(=O)C1=CN(Cc2ccc(Br)cc2)S(=O)(=O)N(C)C1C (stereo not drawn)	8	2	8	.	2789	2.3	-11
Cc1ccc(C(=O)O)cc1S(=O)(=O)NCC1CCCO1 (stereo not drawn)	0	0	0	-3	8488	-0.7	3
C/C(=N\Nc1c(Cl)c(Cl)nc(C(=O)O)c1Cl)c1ccc(O)cc1	.	.	.	2	3161	.	-26
O=C(NCCc1ccc(Cl)cc1)c1ccc2nc[nH]c2c1	9	-4	3	9	3322	2.5	-33
CN1CCN(C(=O)/C=C/c2ccc(C#N)cc2)CC1	5	3	7	-10	3803	2.0	-17
O=C(COC(=O)c1ccco1)Nc1cc(S(=O)(=O)N2CCOCC2)ccc1Cl	0	2	-5	.	4300	-3.4	-21
COc1ccccc1N1CCN(C(c2cccs2)C(C)NC(=O)C(=O)N2CCOCC2)CC1 (stereo not drawn)	3	-4	-1	3	5922	1.3	-2
CC1CCCC(NC(=O)COC(=O)c2ccccc2NC(=O)c2ccco2)C1C (stereo not drawn)	14	0	-11	-1	15951	3.4	8
COC(=O)c1ccc(NC(=O)C2CCCCC2C(=O)O)cc1 (stereo not drawn)	-5	3	-1	-1	9552	-0.5	4
Cc1nn(C)cc1C(=O)Nc1cc(Oc2ccc(Cl)cc2)cc([N+](=O)[O-])c1	2	2	-16	4	9504	1.0	-48
CCn1c(/C=C/c2ccccc2[N+](=O)[O-])nc2ccccc2c1=O	6	5	0	-1	2080	5.8	4
CCN(C[C@H]1N[C@@](C)(C(=O)OC)[C@H]2C(=O)N(Cc3ccccc3)C(=O)[C@@H]12)C(=O)C1CCCCC1	-3	-2	7	.	2933	3.1	5
CCn1c(C)nc2cc(S(=O)(=O)C(F)F)ccc21	2	6	-1	-13	7885	3.1	-14
